# ANO1 block = TMEM16A chloride channel inhibitors, primary screen, cell-based, HTS; HEK293 TMEM16A/YFP iodide influx fluorescence, ionomycin; AID 588511, 2011; 310,000 tested, 1.2% active; normalized B-score (activity score, 25-100; higher = stronger inhibition) at 10 µM;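 active means ratio plate-corrected score three or more library SD toward inhibition, starting fluorescence score within five deviations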;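 further: score derived from kinetic fluorescence span divided by baseline fluorescence per well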
# KCNK3 inh = human KCNK3 channel inhibitors, primary screen, CHO cells, FluxOR thallium flux, B-score; Potassium channel subfamily K member 3 (Homo sapiens), O14649; FluxOR fluorescence; hits give low values; B-score at 10 µM; 340,000 tested, 0.84% active; AID 602410, 2012;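 active means B-score under library mean minus 4 SD, starting fluorescence ratio at most library mean plus 5 SD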;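 further: more negative B-score means stronger inhibition of thallium flux through KCNK3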
# KCNQ1 pot = potentiators or activators of KCNQ1 channel, primary screen, cell-based, thallium flux, high-throughput; CHO-K1 KCNQ1, thallium flux FluxOR fluorescence; hits give high values; B-score at 10 µM; 310,000 tested, 0.35% active; AID 2648, 2010;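 active means fluorescence ratio B-score, a plate-corrected score, at least three library SD, with initial intensity B-score within 5 SD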
#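 Assay system: stable KCNQ1 CHO-K1 line; medium: assay buffer, equal DMSO in all wells; timing: 90 min dye loading and 20 min compound exposure, both at room temperature; technique: kinetic FluxOR thallium fluorescence, 10-s 1-Hz baseline, 110-s post-stimulus read; read-out basis: B score of baseline-normalized fluorescence ratio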
# HDAC3 inhib = HDAC3 deacetylase inhibitors, primary screen, biochemical, fluorescence, cell-free homogeneous; recombinant HDAC3, fluorogenic peptide/trypsin coupled; inhibition, % at 8.3 µM; 320,000 tested, 0.15% active; AID 2718, 2010; in the data active means inhibition above about 26%, passing the limit was not always enough
# TRPC4 agonist = activators of mouse TRPC4 channel, primary screen, Fluo4 calcium, HEK293 TRPC4beta/mu-opioid cells; Fluo4 calcium fluorescence; hits give high values; B-score at 10 µM; 310,000 tested, 0.49% active; AID 2237, 2010;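 active means B-score above 5 SD of library B-scores, and initial fluorescence ratio not above library mean plus 5 SD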;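 further: positive B-score marks a calcium rise read as TRPC4 activation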
#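 system = HEK293 cells stably co-expressing mouse TRPC4beta and mu-opioid receptor | schedule = Fluo4 dye loading 45 min at room temperature, 110 s recording | measure = B-scored integrated calcium fluorescence ratio | signal = Fluo4 calcium-sensitive dye fluorescence, kinetic, 1 Hz baseline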
# KCNQ1 inh = inhibitors of human KCNQ1 channel, primary screen, cell-based, thallium flux, high-throughput; Potassium voltage-gated channel subfamily KQT member 1 (Homo sapiens), P51787; CHO-K1 KCNQ1, FluxOR thallium flux fluorescence; hits give high values; B-score at 10 µM; 310,000 tested, 1.3% active; AID 2642, 2010;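 active means compounds whose thallium flux B-score, printed positive for inhibition, exceeds three library SD while starting fluorescence stays within three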;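 further: channel opened by potassium depolarization with thallium stimulus after 20 min compound exposure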
# ANO1 activ = TMEM16A chloride channel activators or potentiators, primary screen, cell-based, HTS; Anoctamin-1 (Mus musculus), Q8BHY3; HEK293 TMEM16A/YFP-H148Q/I152L, iodide quench fluorescence; hits give low values; B-score at 10 µM; 340,000 tested, 0.3% active;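 active means fluorescence-ratio B-score plate-corrected deviation score at least 3 library SD below zero, with starting fluorescence score within 5 deviations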;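 further: channel opened by trigger with iodide after compound preincubation; score built on the fluorescence ratio of max minus min over baseline; more negative score means more quench and so TMEM16A activation or potentiation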
# hERG rescue = hERG rescue from dofetilide block, primary screen, cell-based, CHO-hERG, FluxOR thallium flux, dofetilide IC70; dofetilide IC70 present; activation (rescue from dofetilide block), less the hit threshold, % at 10 µM; 310,000 tested, 0.51% active; AID 1511, 2009;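 active means activation above the mean of controls blocked by dofetilide plus 5 SD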;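 further: thallium influx through hERG after potassium depolarization seen as dye fluorescence rise; in these data hits start at about 4.7%; inactives centre near -7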
# Target sequence (Q12809 whole entry, looked up): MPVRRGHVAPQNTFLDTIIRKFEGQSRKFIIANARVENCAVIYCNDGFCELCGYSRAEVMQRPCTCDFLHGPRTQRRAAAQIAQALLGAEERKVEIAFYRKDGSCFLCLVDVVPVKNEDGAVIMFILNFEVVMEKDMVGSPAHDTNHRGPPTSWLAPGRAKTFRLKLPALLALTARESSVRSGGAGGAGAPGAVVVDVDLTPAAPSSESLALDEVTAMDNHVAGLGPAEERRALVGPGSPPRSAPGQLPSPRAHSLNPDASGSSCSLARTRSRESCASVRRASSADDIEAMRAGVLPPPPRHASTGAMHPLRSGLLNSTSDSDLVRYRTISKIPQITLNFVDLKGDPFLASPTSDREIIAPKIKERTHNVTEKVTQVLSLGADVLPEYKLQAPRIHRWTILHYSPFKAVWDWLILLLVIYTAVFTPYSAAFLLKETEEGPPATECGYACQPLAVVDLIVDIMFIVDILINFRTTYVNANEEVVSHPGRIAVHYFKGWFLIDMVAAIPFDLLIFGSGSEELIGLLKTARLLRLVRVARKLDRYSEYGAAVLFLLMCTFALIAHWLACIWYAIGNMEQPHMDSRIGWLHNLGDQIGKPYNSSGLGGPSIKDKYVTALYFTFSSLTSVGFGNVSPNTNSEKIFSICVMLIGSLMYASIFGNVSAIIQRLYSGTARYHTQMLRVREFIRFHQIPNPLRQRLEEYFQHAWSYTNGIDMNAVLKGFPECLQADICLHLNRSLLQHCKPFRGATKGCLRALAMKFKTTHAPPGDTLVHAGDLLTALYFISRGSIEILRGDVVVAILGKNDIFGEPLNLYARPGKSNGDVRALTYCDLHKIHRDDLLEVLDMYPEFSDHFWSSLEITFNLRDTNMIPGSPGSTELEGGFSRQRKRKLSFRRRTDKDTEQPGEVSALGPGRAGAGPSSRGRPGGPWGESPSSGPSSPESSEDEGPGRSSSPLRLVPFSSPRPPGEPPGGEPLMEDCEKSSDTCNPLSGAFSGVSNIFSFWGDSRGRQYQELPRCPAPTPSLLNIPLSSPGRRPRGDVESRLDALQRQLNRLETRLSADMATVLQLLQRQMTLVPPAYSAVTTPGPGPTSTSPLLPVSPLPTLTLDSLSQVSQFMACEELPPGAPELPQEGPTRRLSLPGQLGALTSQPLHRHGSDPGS
# TRPC4 potent = positive allosteric modulators of TRPC4, primary screen, cell-based, mouse TRPC4beta, HEK293 mu-opioid, Fluo-4 calcium; DAMGO EC20, Fluo-4 Ca2+ flux; hits give high values; B-score at 10 µM; 310,000 tested, 0.42% active; AID 2227, 2009;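 active means B-score of calcium response area above 5 SD of library B-scores, with initial fluorescence ratio within 5 SD of library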;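 further: B-score of integrated fluorescence ratio over time as area under calcium response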
# KCNK9 block = KCNK9 potassium channel inhibitors, primary screen, HEK293 cells, thallium flux; Potassium channel subfamily K member 9 (Homo sapiens), Q9NPC2; FluxOR thallium flux fluorescence; hits give low values; B-score at 10 µM; 310,000 tested, 1.2% active; AID 488922, 2010;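 active means ratio B-score over 3 SD below the library mean, with starting fluorescence within 5 SD of its mean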;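 further: negative B-score means less thallium flux so channel inhibition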
# Starred values were filed as active, the others as inactive; i = inactive; x = not tested or not shown.
SMILES,ANO1 block,KCNK3 inh,KCNQ1 pot,HDAC3 inhib,TRPC4 agonist,KCNQ1 inh,ANO1 activ,hERG rescue,TRPC4 potent,KCNK9 block
CCc1ccc(N2C(=O)C3ON(c4ccccc4)C(c4ccco4)C3C2=O)cc1 (stereo unspecified),i,i,i,10,i,i,i,-7,i,i
CCCCNc1cc(=O)oc2ccccc12,i,i,i,-6,i,i,i,-10,i,i
Nc1ccc(-c2cnc[nH]2)cc1[N+](=O)[O-],i,i,i,-5,i,i,i,-12,i,i
COc1cc(/C=C2\SC(=O)NC2=O)ccc1OCC(=O)N1CCOCC1,x,i,x,4,x,x,i,x,x,x
CSc1nc(NCC(C)C)c2c3c(sc2n1)CN(C)CC3,i,i,i,-1,i,i,i,-13,i,i
NS(=O)(=O)c1cccc(NS(=O)(=O)c2cccc(C(F)(F)F)c2)c1,i,i,i,-1,i,i,i,-2,i,i
COc1ccc(C(=O)Nc2ccccc2C(=O)Nc2ccccc2C(=O)O)cc1,i,i,i,5,i,i,i,-8,i,i
Cc1ccc(CNc2nc3ccc(C)cc3n3cnnc23)cc1,i,i,i,-5,i,i,i,-7,i,i
O=C(/C=C/c1ccccc1Cl)NCCc1ccc(F)cc1,i,i,i,4,i,i,i,-2,i,i
COc1ccc2nc(SCC(=O)NC(C)(C)C)[nH]c2c1,i,i,i,5,i,i,i,-8,i,i
COc1ccc(-c2noc(C)c2-c2ccc3ccccc3n2)c(O)c1,i,i,i,4,i,i,i,-17,i,i
CC1=C(C(=O)OCC2CCCO2)C(c2ccccc2OC(C)C)C2=C(CC(c3ccco3)CC2=O)N1 (stereo unspecified),i,i,i,-3,i,i,i,-11,i,i
c1ccc(C(c2ccccc2)N2CCN(Cc3nnnn3C3CCCC3)CC2)cc1,i,i,i,-1,i,i,i,-11,i,-9*
On1c(-c2ccco2)nc2c1CCc1nonc1-2,i,i,i,-4,i,i,i,-9,i,i
O=C(NNC(=O)c1csc(-c2cccnc2)n1)c1ccccc1,i,i,i,1,i,i,i,-2,i,i
COC1(OC)N=C(N)C2(C#N)C(c3ccc4c(c3)OCO4)C12C#N (stereo unspecified),i,i,i,1,i,i,i,-10,i,i
CCCC(=O)Nc1nnc(-c2cccc(OCC)c2)s1,i,i,i,-4,i,i,i,-3,i,i
CCN(CC)c1ccc(C(=O)OCC(=O)c2ccco2)cc1,i,i,i,-3,i,i,i,-1,i,i
CCOC(=O)c1cc(-c2ccccc2)nn1Cc1cc(CC)no1,i,i,i,8,i,i,i,-2,i,i
COc1ccc(/C=C2/SC(=O)NC2=O)cc1,i,i,i,13,i,i,i,-5,i,i
C/C(=N\NC(=O)c1ccc(NS(=O)(=O)c2cccs2)cc1)c1cccs1,i,i,i,-4,i,i,i,-8,i,i
Cc1cc(C)nc(SCC(=O)Oc2ccc3oc(=O)cc(C)c3c2)n1,i,i,i,-9,i,i,i,-6,i,i
CN1CCc2c(sc3c2c(=O)n(-c2ccccc2)c2nnc(SCc4ccc(Cl)cc4)n32)C1,i,i,i,9,i,i,i,-7,i,i
CCN1CCN(c2nc(Nc3ccc(C)c(C)c3)nc(N)c2[N+](=O)[O-])CC1,i,i,i,6,i,i,i,-5,i,i
COc1ccc2nc(NC(=O)CNS(=O)(=O)c3cccs3)sc2c1,i,i,i,5,i,i,i,-8,i,i

# Next section; it opens with the 3 that closed the last part.
SMILES,ANO1 block,KCNK3 inh,KCNQ1 pot,HDAC3 inhib,TRPC4 agonist,KCNQ1 inh,ANO1 activ,hERG rescue,TRPC4 potent,KCNK9 block
CN1CCc2c(sc3c2c(=O)n(-c2ccccc2)c2nnc(SCc4ccc(Cl)cc4)n32)C1,i,i,i,9,i,i,i,-7,i,i
CCN1CCN(c2nc(Nc3ccc(C)c(C)c3)nc(N)c2[N+](=O)[O-])CC1,i,i,i,6,i,i,i,-5,i,i
COc1ccc2nc(NC(=O)CNS(=O)(=O)c3cccs3)sc2c1,i,i,i,5,i,i,i,-8,i,i
COc1ccccc1CC(=O)Nc1ccc2[nH]ncc2c1,i,i,i,-2,i,i,i,-6,i,i
CC(C)c1ccc(CCNC(=O)CCNC(=O)c2ccc(Br)cc2)cc1,i,i,i,-1,i,i,i,-5,i,i
O=C1C(SC(F)(F)C(F)F)=C(C(F)(F)F)OC2C3C=CC(C3)C12 (stereo unspecified),i,i,i,8,i,i,i,-5,i,i
CC1(C)Cc2ccccc2C(/C(=N/O)C(N)=O)=N1,i,i,i,7,i,i,i,-2,i,i
Cc1ccc2c(c1)/C(=C/c1ccco1)C(=O)N2,i,i,i,2,i,i,i,-6,i,i
N#Cc1cccc2c1-c1ccccc1/C2=N/NC(N)=O,i,i,i,-2,i,i,i,-8,i,i
CCc1ccc(NCc2cc3c(C)nn(-c4ccccc4)c3[nH]c2=O)cc1,i,i,i,4,i,i,i,-12,i,i
O=C(Nc1cccc(Cl)c1N1CCCC1)c1ccc(Br)o1,25*,i,i,6,i,i,i,-16,i,-9.3*
COCCn1nnnc1C(c1cc2cc(C)ccc2[nH]c1=O)N1CCc2ccccc21 (stereo unspecified),i,i,i,9,i,i,i,-9,i,i
CS(=O)(=O)c1ccc2nc(NC(=O)CN3C(=O)NC4(CCCC4)C3=O)sc2c1,i,i,i,-1,i,i,i,-7,i,i
COc1cc(/C=C(\C#N)C(=O)NCc2cccs2)ccc1O,i,i,i,14,i,i,i,-10,i,i
COc1cc(S(=O)(=O)NCc2ccc3c(c2)OCO3)c(OC)cc1C,i,i,i,0,i,i,i,-6,i,i
CCc1c(O)cc(=O)n(-c2ccccc2)c1-c1ccccc1,i,i,i,0,i,i,i,-10,i,i
COc1ccc2nc(NC(=O)CN3C(=O)NC4(CCCC4)C3=O)sc2c1,i,i,i,-2,i,i,i,-17,i,i
Cc1cc(NC(=O)CSc2ccc3nnc(-c4cccs4)n3n2)no1,i,i,i,-1,i,i,i,-7,i,i
Fc1cccc(Cc2noc(CN3CCSCC3)n2)c1,i,i,i,x,i,i,i,-1,i,i
COc1nc(N2CCOCC2)nc(-n2cccc2)n1,i,i,i,-1,i,i,i,-8,i,i
CCOC(=O)/C(C#N)=C1/C=C(C)NC(c2ccccc2O)=N1,i,i,i,5,i,i,i,-8,i,i
Cn1c(=O)c2c(ncn2Cc2ccc(Cl)c(Cl)c2)n(C)c1=O,i,i,i,1,i,i,i,-8,i,i
Cc1c(NC(=O)c2cc(-c3ccc4c(c3)OCO4)on2)c(=O)n(-c2ccccc2)n1C,i,i,i,6,i,i,i,-5,i,i
COc1ccc(/C(N)=N/OC(=O)c2cccs2)cc1,i,i,i,5,i,i,i,-15,i,i
Cc1cccc(Cn2c(=O)n(CCCC(=O)NCc3ccco3)c(=O)c3ccccc32)c1,i,i,i,-1,i,i,i,-7,i,i
Cc1ccc2nc(NC(=O)C3CCCN(S(=O)(=O)c4cccnc4)C3)sc2c1 (stereo unspecified),i,i,i,7,i,i,i,-5,i,i
COc1cc([N+](=O)[O-])c(OC)cc1SCc1n[nH]c(=S)n1-c1ccc(F)cc1,i,i,i,3,i,i,i,-7,i,i
CCCCNC(=O)CCC(=O)Nc1ncc(-c2ccc(C)cc2)n1C,i,i,i,-10,i,i,i,-6,i,i

# (cont.)
SMILES,ANO1 block,KCNK3 inh,KCNQ1 pot,HDAC3 inhib,TRPC4 agonist,KCNQ1 inh,ANO1 activ,hERG rescue,TRPC4 potent,KCNK9 block
CC(NC(=O)c1cc(-c2ccccc2)on1)c1ccccc1 (stereo unspecified),i,i,i,0,i,i,i,-5,i,i
Cc1ccsc1CNc1ncnc2ccc(-c3c(C)noc3C)cc12,x,i,x,1,x,x,i,x,x,x
CCn1c(COc2ccc(Cl)cc2)nnc1SCC(=O)Nc1ccc2c(c1)OCO2,i,i,i,4,i,i,i,-4,i,i
O=C(/C=C/c1ccc([N+](=O)[O-])cc1)NCc1ccco1,i,i,i,3,i,i,i,-2,i,i
COc1ccc(Nc2ncnc3c2cnn3Cc2ccccc2)cc1OC,i,i,i,-1,i,i,i,-3,i,i
CCOC(=O)c1cnc(C(C)(C)C)[nH]c1=O,i,i,i,-8,i,i,i,-10,i,i
C/C(=N\NC1=NCCN1)c1ccc(N)c([N+](=O)[O-])c1,i,i,i,x,i,i,i,-7,i,i
O=S(=O)(Nc1cccc2ncccc12)c1cccc(C(F)(F)F)c1,x,i,x,x,x,x,i,x,x,x
CC(C)Cc1nc(C(N)=O)c2[nH]c(=O)n(-c3ccc(F)cc3)c2n1,i,i,i,-1,i,i,i,1,i,i
C=CCn1c(CNC(=O)c2ccccc2F)nnc1SCc1nc2ccccc2c(=O)[nH]1,i,i,i,-2,i,i,i,-7,i,i
COc1ccc(CCCC(=O)NCc2ccccc2)cc1C,i,i,i,-3,i,i,i,-5,i,i
C/C(=N\NC(=O)c1ccc(NS(=O)(=O)c2cccs2)cc1)c1ccncc1,i,i,i,8,i,i,i,-9,i,i
N#Cc1cc2cc3c(cc2nc1N1CCCCC1)OCCO3,i,i,i,-2,i,i,x,-8,i,i
Cc1ccccc1-c1nc(-c2ccc(NC(=O)c3ccc(Br)o3)cc2)no1,i,i,i,4,i,i,i,-2,i,i
COc1cccc(-c2ccc3ncnc(N(C)Cc4ccco4)c3c2)c1,x,i,x,7,x,x,i,x,x,x

# Complete entries, looked up by structure:
# Shown for CC(C)c1ccc(CCNC(=O)CCNC(=O)c2ccc(Br)cc2)cc1 → ANO1 block: i; KCNK3 inh: i; KCNQ1 pot: i; HDAC3 inhib: -1; TRPC4 agonist: i; KCNQ1 inh: i; ANO1 activ: i; hERG rescue: -5; TRPC4 potent: i; KCNK9 block: i
# Shown for C=CCn1c(CNC(=O)c2ccccc2F)nnc1SCc1nc2ccccc2c(=O)[nH]1 → ANO1 block: i; KCNK3 inh: i; KCNQ1 pot: i; HDAC3 inhib: -2; TRPC4 agonist: i; KCNQ1 inh: i; ANO1 activ: i; hERG rescue: -7; TRPC4 potent: i; KCNK9 block: i
# Shown for CCn1c(COc2ccc(Cl)cc2)nnc1SCC(=O)Nc1ccc2c(c1)OCO2 → ANO1 block: i; KCNK3 inh: i; KCNQ1 pot: i; HDAC3 inhib: 4; TRPC4 agonist: i; KCNQ1 inh: i; ANO1 activ: i; hERG rescue: -4; TRPC4 potent: i; KCNK9 block: i

# High-throughput results (PubChem BioAssay)

# Not all compounds are listed (hit frequency here may not be typical).
